HIV TAR-Tat: TAR RNA-Tat peptide displacers, HIV-1, primary screen, biochemical, FRET, FAM/TAMRA-labeled Tat; HIV-1 TAR RNA, Tat peptide displacement FRET; hits give high values; z-score (concentration not given with the values); hit rate 0.6% among 100,000; AID 1259389, 2018;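 also: score is relative to mean and SD of negative controls; some compounds called inactive have numbers as strong as hits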
CDC25B CDK2 inh: primary biochemical HTRF screen for blockers of M-phase inducer phosphatase 2 binding to CDK2/cyclin A; P30305+P24941; HTRF CDC25B-CDK2/CyclinA binding, anti-His/anti-Flag; hits give high values; z-score (concentration not given with the values); hit rate 0.72% among 94,000;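 also: score is relative to mean and SD of negative controls; strong numbers were not always called active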
* = called active by the depositor; . = not tested or not shown.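 The calls were made as follows: active = z-score from 3 up in half or more of its runs; inactive = the rest.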

The line under a structure holds: CDC25B CDK2 inh	HIV TAR-Tat
Cc1cc(=O)nc2c3ccccc3n(C(C)C(=O)NC3CCCC3)n12 (stereo not drawn)
→ -0.72	-1.9
CN[C@H](CC(=O)O)C(=O)O
→ -1.4	-0.14
c1ccc(-c2ccc(-c3ncc(-c4ccccc4)o3)cc2)cc1
→ -0.48	1.7
COC(=O)c1cc(S(=O)(=O)N2CCN(c3ccc(Cl)cc3)CC2)cn1C
→ -0.52	1.4
CCCCc1c(COC)nc(SC)[nH]c1=O
→ -1.7	.
O=S(=O)(NC1CCCC1)c1ccc(-c2cnc(C3CC3)o2)cc1
→ .	0.27
COc1ccc(C(CC(=O)O)c2ccc(OC)c(OC)c2)cc1OC
→ -0.82	-1
COc1ccc(C2=NC(C)(C)Cc3cc(OC)c(OC)cc32)cc1
→ -2.6	1.2
Cc1nc2sc3c(SCC(=O)Nc4ccccc4Cl)ncnc3c2c2c1COC(C)(C)C2
→ 0.19	1.2
O=C1N[C@H](C(=O)O)CS1
→ .	2.2
c1ccc(-c2nc3ccccc3c3nnc(SCc4cccnc4)n23)cc1
→ .	1.3
CCC(=O)Nc1ccc(OCc2cc(=O)n3cc(Cl)ccc3n2)cc1
→ .	0.4
CC(C)CNC(=O)CN1c2ccccc2NC2=C(C(=O)CC(C)(C)C2)C1c1ccco1 (stereo not drawn)
→ .	1.8
CCC(C)C(C(=O)O)N1C(=O)NC2NC(=O)NC21 (stereo not drawn)
→ -0.07	2.3
CCCCC(=O)Nc1nc(-c2ccc(Br)cc2)ns1
→ -3.2	1.3
COCc1c(Br)c(C)nc2sc3c(=O)[nH]nnc3c12
→ -1	-0.28
CNC(=O)c1c(NC(=O)c2nn(-c3cccc(Cl)c3)ccc2=O)sc2c1CCCC2
→ -1.2	-0.63
C=CCOc1ccc(C2NC(=O)NC(O)(C(F)(F)F)C2C(=O)c2ccc(F)cc2)cc1 (stereo not drawn)
→ -1	.
O=C(Cn1nc(-c2ccco2)ccc1=O)Nc1ccccc1Cl
→ .	-7.6
COc1cccc(C2=NN(S(C)(=O)=O)C(c3cn(-c4ccccc4)nc3-c3ccc(C)cc3)C2)c1 (stereo not drawn)
→ -3.1	0.91
CN(C)CCCNC(=O)N1c2ccccc2C=Cc2ccccc21
→ -1.3	-0.02
CCOC(=O)c1c(C)oc2nc(C)nc(NC3CCCc4ccccc43)c12 (stereo not drawn)
→ .	1.1
COc1ccc(-c2nc3ncccn3c2NCc2ccc(Cl)cc2)cc1
→ .	-0.34
O=c1c(-n2nnc3ccccc32)c2oc3ccccc3nc-2c2ccccc12
→ 1.1	-9.1
Cc1nc(N)sc1-c1csc(Nc2ccccn2)n1
→ 18*	.
O=c1c(S(=O)(=O)c2ccc(F)c(F)c2)c[nH]c2cc(Cl)c(F)cc12
→ -2.2	-0.67
CN(CCNC(=O)c1ccc2c(=O)n3c(nc2c1)CCCCC3)Cc1ccccc1
→ -2.8	.
O=C1C(=O)N(Cc2cccnc2)C(c2cccnc2)/C1=C(\O)c1ccc(F)cc1 (stereo not drawn)
→ -4	0.08
CCOc1ccc(C2c3c(-c4cc(C)ccc4O)n[nH]c3C(=O)N2CCOC)cc1 (stereo not drawn)
→ 1.4	0.19
O=C(Nc1ccc(Cl)cc1)c1cnn2c3c(cnc12)CCCCCC3
→ .	-0.95
Fc1ccccc1-c1nc(-c2ccc3c(c2)nnn3C2CCCC2)no1
→ .	0.73
Cc1n[nH]c(C)c1CCCCCCOc1ccc(F)cc1
→ -2.3	0.65
Cc1cc(C2C3=C(CC(C)(C)CC3=O)N=C3c4ccccc4C(=O)C32)cc(C)c1O (stereo not drawn)
→ -0.94	2.2
O=C(NCc1noc2ccccc12)N1CCc2ccccc21
→ .	-1.8
CC(C)c1nc(SCC(=O)NCC2CCCO2)c2c(=O)n(C)c(=O)n(C)c2n1 (stereo not drawn)
→ .	0.36
Cc1cccc(-c2cc(Nc3ccccc3Cl)nc(C)n2)c1
→ 1	-0.73
CC1=C(C(=O)OC2CCCCC2)C(c2cccc(F)c2)C2=C(CC(C)(C)CC2=O)N1 (stereo not drawn)
→ -1.4	1.3
COc1ccc(N2CCN(S(=O)(=O)c3cn(C)cn3)CC2)cc1
→ .	2.1
CCc1cc2c(cc3c(=O)n(CC(=O)N4CCCCC4)nc(CC)n32)s1
→ -1.2	-0.22
O=C(Nc1ccccc1C(=O)Nc1ccc(F)cc1)c1ccco1
→ -1.3	.
Cc1sc2c(c1C)CSC(C(=O)N1CCc3ccccc31)=C2
→ .	0.51
O=C(O)c1cc2nc(-c3ccc(F)cc3)cc(C(F)(F)F)n2n1
→ .	1
CC1Cc2ccccc2N1S(=O)(=O)c1ccc(C(=O)O)cc1 (stereo not drawn)
→ 1.6	-0.09
O=C(O)CCSc1n[nH]c2nc3ccccc3n12
→ 0.06	1.6
CC(=O)Nc1nc(NC(C)=O)nc(N2CCCCC2)n1
→ -0.42	.
CCn1nc(C)c(CNS(=O)(=O)Cc2ccccc2)c1C
→ .	-0.42
Cc1ccc(-n2ccnc(NCC3CCCO3)c2=O)cc1C (stereo not drawn)
→ .	-0.26
CCOC(=O)Cn1c2ccc(Br)cc2c2nc3ccccc3nc21
→ -0.97	1.4
O=c1ncn(Cc2cccs2)cc1-c1ccccc1
→ -1.4	.
CN(Cc1ccccc1)C(=O)Cn1cc(S(=O)(=O)Cc2cccc(Cl)c2)c2ccccc21
→ .	-0.61
O=C(c1ccc(F)cc1)c1cn(Cc2ccc(F)cc2)c2cc3c(cc2c1=O)OCCO3
→ -0.48	2.4
CC1CSc2ccc(S(=O)(=O)N(Cc3ccccc3)C(C)C)cc2NC1=O (stereo not drawn)
→ .	19
CCOc1ccc(S(=O)(=O)N2CCCC2c2cccs2)cc1 (stereo not drawn)
→ -1.6	0.18
c1ccc(-n2nnnc2SCCNCc2ccncc2)cc1
→ -1.3	0.42
O=C(c1ccco1)N1CCN(C(=O)c2cnn(-c3ccc(F)cc3)c2-n2cccc2)CC1
→ .	1
O=C(CSc1nc2ncccc2o1)NCCC1=CCCCC1
→ .	1.9
CC1CCCCN1CCN1C(=O)c2ccc(-c3ccco3)n2CC1(C)C(=O)NC1CCCCC1 (stereo not drawn)
→ .	-3.2
CSc1nc2c(c(Nc3ccc(C(=O)OC(C)C)cc3)n1)CCC2
→ 0.28	0.57
O=C(Cn1cc(C(=O)C2CCCCC2)c2ccccc21)Nc1ccccc1Cl
→ -1.6	0.92
CCOc1ccc(NC2OC(=O)c3c2ccc(OC)c3OC)cc1 (stereo not drawn)
→ -2.9	0.55

Compound profiles (already shown).
`O=C(Cn1cc(C(=O)C2CCCCC2)c2ccccc21)Nc1ccccc1Cl` across the screens: CDC25B CDK2 inh = -1.6; HIV TAR-Tat = 0.92
`CCOc1ccc(NC2OC(=O)c3c2ccc(OC)c3OC)cc1` (stereo not drawn) across the screens: CDC25B CDK2 inh = -2.9; HIV TAR-Tat = 0.55

(listing goes on)
The line under a structure holds: CDC25B CDK2 inh	HIV TAR-Tat
COC(=O)c1ccc(-c2ccco2)n1CC(=O)N1CCC(C(N)=O)CC1
→ .	1.1
Cc1ccc(-c2nnc(Nc3ccc(O)cc3)c3ccccc23)cc1S(=O)(=O)N(C)C
→ -3.3	1.8
c1nc2ncn3c(c-2n1)SCC3
→ -2	.
Cn1c(SCc2csc(CS(=O)(=O)c3ccc(Cl)cc3)n2)nnc1C(F)(F)F
→ -1.4	.
COC(=O)C1=C(C)NC(C)=C(C(=O)OC)C1c1ccco1
→ -1.9	.
CCn1c(=O)oc2ccc(C(=O)Nc3nc(C)cc(C)n3)cc21
→ .	0.58
O=C(NCc1csc(-c2ccccc2)n1)c1sc2ccccc2c1Cl
→ -0.81	1.6
Fc1ccccc1N1CCN(c2ncnc3c2cnn3-c2cccc(Cl)c2)CC1
→ .	1.9
CC1=C(C(=O)OC(C)C)C(c2ccccc2Br)C2=C(CC(C)(C)CC2=O)N1 (stereo not drawn)
→ -2.5	1.3
CC(C)(C)c1nnc2sc(-c3ccc(Cl)cc3)nn12
→ 0.58	0.55
CCOC(=O)CSC(=S)Nc1c(C)cc(C)cc1C
→ -1.2	.
CCc1nc(SC)ncc1C(=O)Nc1ccc2c(c1)OCCO2
→ .	0.05
S=c1[nH]c2ccccc2n1CCOc1ccc(Cl)cc1
→ -1.7	.
CCOC(=O)c1c(C)[nH]c(C)c1S(=O)(=O)N1CCCC(C(=O)NCc2ccco2)C1 (stereo not drawn)
→ .	-0.24
CCOC(=O)c1ccc(N2N=C(C)CC2=O)cc1
→ 7.4	.
CC(C)Oc1ccc(Cc2nc(-c3ccccc3)n[nH]c2=O)cc1
→ .	1.8
CN1CCN(CCCNC(=O)c2ccc3c(c2)NC(=O)C(N2CCOCC2)S3)CC1 (stereo not drawn)
→ -0.15	.
COc1cccc(OCC(O)Cn2c(C)nc3ccccc32)c1 (stereo not drawn)
→ -2.1	0.2
CCc1ccc(C2C3=C(Nc4c2c(=O)n(C)c(=O)n4C)c2ccccc2C3=O)cc1 (stereo not drawn)
→ -1.6	-6.7
CCOC(=O)c1cc(CC)sc1NC(=O)CCC(=O)O
→ 0.04	.
O=C(c1nn2c(C(F)(F)F)cc(-c3ccc(Br)cc3)nc2c1Cl)N1CCOCC1
→ .	0.14
Cc1cc(C)c(NS(=O)(=O)c2c(C)[nH]c(C)c2C(=O)N2CCCC2)c(C)c1
→ .	1.3
CCN1CCN(C(c2cccc(Cl)c2)c2sc3nc(C)nn3c2O)CC1 (stereo not drawn)
→ 0.83	.
c1ccc2[nH]c(CSc3nc4ncccc4[nH]3)nc2c1
→ -0.28	2
Cn1c(=O)c2c(SCC(=O)NCc3ccc4c(c3)OCO4)nc(C3CCCC3)nc2n(C)c1=O
→ .	0.73
CC1CCN(c2cc(N3CCN(C(=O)c4ccco4)CC3)c3noc4c3c2C(=O)c2ccccc2-4)CC1
→ 1.1	-4.7
CCC(Sc1nnc(CSc2nc(C)cc(C)n2)n1-c1ccc(OC)cc1)C(=O)OC (stereo not drawn)
→ -0.5	1.2
CC(C)(C)C(=O)/C(C#N)=C/Nc1cccc2nsnc12
→ -3.7	.
Cc1ccccc1OCC(=O)OCc1cc(=O)n2nc(-c3cccs3)sc2n1
→ .	-1
Cc1oc2ccc(OCc3ccc(Cl)cc3)cc2c1C(=O)O
→ -2.9	1.7
O=C(c1ccco1)N1CCN(C(=O)C2CCCc3c2[nH]c2ccc(Cl)cc32)CC1 (stereo not drawn)
→ 0.76	-0.77
Cc1cc(NC(=O)C(Cl)Cl)n(-c2ccccc2)n1
→ -1.5	.
CN1C(=O)C2(c3ccccc31)C(C(=O)Nc1ccc(Br)cc1F)CC1CCCN12 (stereo not drawn)
→ .	-0.66
Cn1c(O)c(C2=Nc3ccccc3SC(c3ccc(Br)cc3)C2)c(=O)[nH]c1=O (stereo not drawn)
→ 0.89	1.9
COc1ccc(Nc2cc(Nc3ccc(Cl)cc3)ncn2)cc1
→ -0.97	1.6
Cn1c2ccccc2c2cnn(CC(=O)NC3CCCC3)c(=O)c21
→ -0.59	1.4
Cc1ccc(-c2cc(C(=O)N(Cc3ccco3)C3CCS(=O)(=O)C3)no2)cc1C (stereo not drawn)
→ -1.4	-0.46
COc1ccc(/C=C/c2nc(-c3ccncc3)no2)cc1OC
→ -0.57	0.45
COc1ccc(CN=C2NS(=O)(=O)C(c3ccc(OC)cc3)=C2C)cc1
→ 1.5	1.1
Cn1c(=O)c2c(nc(CN3CCN(c4cccc(Cl)c4)CC3)n2CCCO)n(C)c1=O
→ -0.76	.
O=C(c1ccc(OCCN2CCCCC2)cc1)c1c(-c2ccc(O)cc2)sc2cc(O)ccc12
→ -0.28	.
CN(C(=O)CSc1nc(-c2cccc(Cl)c2)nc2cc(=O)[nH]n12)c1ccccc1
→ .	0.82
Cc1noc(C)c1S(=O)(=O)Nc1ccc(CN2CCS(=O)(=O)CC2)cc1
→ -1.8	.
O=c1[nH]c(SCc2ccc(F)cc2)nc2c1CCCC2
→ -1.5	2.1
Cc1cc(NC(=O)C2Cc3ccccc3N2C(=O)c2ccccc2)no1 (stereo not drawn)
→ .	0.83
O=C(c1ccc(Br)cc1)N(Cc1cccc(F)c1)C1CCS(=O)(=O)C1 (stereo not drawn)
→ -0.93	1.4
COC(=O)c1ccc(-c2ccco2)n1CC(=O)N1CCN(C2CCCCC2)CC1
→ .	1.3
CCCCc1nn2c(=O)cc(COC(=O)COc3ccccc3F)nc2s1
→ .	0.99
CC(=O)Cc1nsc(Nc2ccc(C)cc2C)n1
→ 0.1	.
COc1cccc(-c2cc(C(=O)O)c3c(-c4ccc(Br)cc4)[nH]nc3n2)c1O
→ .	4.2
O=C(CC1(O)C(=O)Nc2ccccc21)c1cccc2ccccc12 (stereo not drawn)
→ 0.02	1.1
Cc1c(C(=O)N2CCN(C3CCCCC3)CC2)sc2nc3n(c(=O)c12)CCCC3
→ .	1
CCOC(=O)c1[nH]c(C)c(C)c1O
→ -1.4	0.39
CCOc1ccc(C2c3c(oc4ccccc4c3=O)C(=O)N2c2ccccn2)cc1 (stereo not drawn)
→ -2.5	0.98
COC(=O)c1c(NC(=O)CCCC(=O)O)sc2c1CCC2
→ -1.2	1.5

Part of the list above in order of molecular weight, ascending:
The line under a structure holds: CDC25B CDK2 inh	HIV TAR-Tat
CCOC(=O)c1[nH]c(C)c(C)c1O
→ -1.4	0.39
CCCCc1nn2c(=O)cc(COC(=O)COc3ccccc3F)nc2s1
→ .	0.99
CCOc1ccc(C2c3c(oc4ccccc4c3=O)C(=O)N2c2ccccn2)cc1 (stereo not drawn)
→ -2.5	0.98
COC(=O)c1ccc(-c2ccco2)n1CC(=O)N1CCN(C2CCCCC2)CC1
→ .	1.3
Cc1c(C(=O)N2CCN(C3CCCCC3)CC2)sc2nc3n(c(=O)c12)CCCC3
→ .	1

High-throughput results (PubChem BioAssay)
